MARV entry inh: qHTS for inhibitors of binding or entry into cells for Marburg Virus | Marburg virus pseudotyped entry inhibition, cell reporter; control for the full effect not named in the record; about a third of the inactives were read at about 46 µM | AID 540276, 2011 | Potency, µM (highest dose often 37.8 µM), for inactives: at the top dose activity change, negative = inhibition, hits mostly inhibitors | 300,000 tested, 1.8% active; active = well fitted inhibition curve with a large enough effect; inconclusive = small, poorly fitted or top-dose-only effect, or effect the other way; inactive = flat fitted curve, though single readings scatter; tested in HEK293 cells; about a fifth of its hits are not listed in these tables; also: % is scaled to controls: 0 for no effect and ±100 for the full control effect; luciferase read-out
Lassa entry inh: qHTS for Inhibitors of binding or entry into cells for Lassa Virus | Lassa virus pseudotype entry inhibition, cell reporter; control for the full effect not named in the record | 300,000 tested, 1.2% active | AID 540256, 2011 | Potency, µM (top dose mostly 37.9 µM), for the others: top-dose activity change, negative = inhibition, actives largely listed as inhibitors; active means well fitted inhibition curve with a large enough effect; inconclusive means small, poorly fitted or top-dose-only effect, or effect the other way; inactive means flat fitted curve, though single readings scatter; tested in HEK293 cells; also: % is scaled to controls: 0 for no effect and ±100 for the full control effect; nearly all actives have a fitted effect of over 50% in size; luciferase read-out
Cruzain inh noDet: qHTS Assay for Promiscuous and Specific Inhibitors of Cruzain (without detergent) | Cruzipain (Trypanosoma cruzi), P25779 | purified cruzain, Z-FR-AMC fluorescence, no detergent | Potency, µM, for the others: max response, negative = inhibition, actives largely listed as inhibitors | 200,000 tested, 2.3% active | AID 1476, 2009;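 also: plate controls were enzyme without inhibitor for no effect and buffer without enzyme for full effect; nearly all actives have a fitted effect of over 40% in size; top concentration of the series not given in the record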
Target sequence (P25779 123-467 limits assumed): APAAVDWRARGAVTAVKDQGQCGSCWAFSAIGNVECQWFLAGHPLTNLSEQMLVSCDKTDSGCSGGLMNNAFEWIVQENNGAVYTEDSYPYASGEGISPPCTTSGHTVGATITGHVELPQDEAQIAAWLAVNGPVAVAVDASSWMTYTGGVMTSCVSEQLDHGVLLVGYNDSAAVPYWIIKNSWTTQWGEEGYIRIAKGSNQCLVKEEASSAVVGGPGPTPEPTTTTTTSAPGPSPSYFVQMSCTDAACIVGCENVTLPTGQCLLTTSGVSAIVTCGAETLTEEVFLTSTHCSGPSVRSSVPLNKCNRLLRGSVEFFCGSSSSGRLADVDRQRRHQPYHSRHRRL
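Detergent-free condition (0.00005% Triton X-100) in acetate buffer pH 5.5 with DTT. 1.5 nM enzyme and compound were pre-mixed 15 min, then 2 uM Z-FR-AMC substrate added; reaction progress from fluorescence change between first and third reads (60 s).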
NS1 inh: qHTS Assay for Inhibitors of Influenza NS1 Protein Function; AID 2326, 2010; 270,000 tested, 0.4% active; S. cerevisiae slowed by influenza A NS1, growth recovery by OD600; Potency, µM (highest dose often 46.1 µM), for inactives: at the highest dose activity, positive = more growth; active means well fitted rising curve with a large enough effect; inconclusive means small, poorly fitted or top-dose-only effect; inactive means no such curve, though single readings can be large or run the other way; also: nearly all actives have a fitted effect of over 50% in size
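Recovery from NS1-induced slow growth read by OD600 in budding yeast switched to galactose assay medium (pH 6.0, -URA) at 1:100 dilution. Compound 23 nl per well; the matching strain lacking NS1 serves as control.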
2A StopGo: High Throughput Screening for Foot and Mouth Disease Virus Antivirals | human cells with a luciferase reporter of 2A StopGo recoding; control for the full effect not named in the record | Potency, µM (highest dose often 57.9 µM), for the others: at the highest dose signal change, negative = less light | 410,000 tested, 1.2% active; active = well fitted falling curve with a large enough effect; inconclusive = small, poorly fitted or top-dose-only effect; inactive = no such curve, though single readings can be large or run the other way; tested in HEK293T cells; also: % is scaled to controls: 0 for no effect and ±100 for the full control effect; nearly all actives have a fitted effect of over 45% in size; luciferase light after 4 h
Cruzain inh Det: qHTS Assay for Promiscuous and Specific Inhibitors of Cruzain (with detergent); purified cruzain, Z-FR-AMC fluorescence, 0.01% Triton; Potency, µM, for inactives: max response, negative = inhibition, most hits filed as inhibitors; 200,000 tested, 0.43% active; AID 1478, 2009; Cruzipain (Trypanosoma cruzi), P25779;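 also: plate controls were neutral wells for no effect and buffer without enzyme for full effect; nearly all actives have a fitted effect of over 40% in size; top concentration of the series not given in the record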
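Detergent-containing arm of a paired screen for aggregation-based inhibition: 0.01% Triton X-100 present. Cruzain at 1.5 nM cleaved 2 uM Z-FR-AMC at pH 5.5 with 5 mM DTT; AMC fluorescence gain over 60 s measured activity.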
SARS PLP yeast: qHTS of Yeast-based Assay for SARS-CoV PLP | S. cerevisiae expressing SARS-CoV PLpro, growth rescue; control for the full effect not named in the record | Potency, µM (highest dose often 32.9 µM), without a hit: at the highest dose activity, positive = growth rescue | 330,000 tested, 0.19% active | AID 485353, 2010; active means well fitted rising curve with a large enough effect; inconclusive means small, poorly fitted or top-dose-only effect; inactive means no such curve, though single readings can be large or run the other way; also: 0% is about no effect; nearly all actives have a fitted effect of over 55% in size; growth read by luminescence after 48 h
RE007 growth inh: qHTS Assay for Inhibitors of the HIV-1 protein Vpr; 360,000 tested, 0.21% active; S. pombe RE007 Vpr strain, BacTiter-Glo ATP luminescence, 24 h; control for the full effect not named in the record; Potency, µM (highest dose often 92.2 µM), for the others: at the highest dose activity change, negative = less growth; active = well fitted falling curve with a large enough effect; inconclusive = small, poorly fitted or top-dose-only effect; inactive = no such curve, though single readings can be large or run the other way;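 also: % is scaled to controls: 0 for no effect and ±100 for the full control effect; nearly all actives have a fitted effect of over 50% in size; the assay follows cell death caused by Vpr and the record does not say whether a fall means rescue or toxicity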
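Fission yeast strain RE007, carrying one chromosomally integrated HIV-1 vpr copy, was seeded at OD 0.01 in PMG+AL medium with 23 nL pinned compound. After 24 h at 30 °C and 99% humidity, viability was read by BacTiter-Glo luminescence.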
* hit, by the source's call; ? = inconclusive; . = not tested or not shown; [ ] = remark or other dose. Unless noted, calls follow the shape of the dose curve; as a rule, active = well fitted curve in the direction sought with a large enough effect; inconclusive = small, poorly fitted or top-dose-only effect, or another doubt; inactive = no such curve, though single readings can be large; an effect the other way counts as inactive or inconclusive. Potency is read from the fitted curve at half-maximal effect.

SMILES	MARV entry inh	Lassa entry inh	Cruzain inh noDet	NS1 inh	2A StopGo	Cruzain inh Det	SARS PLP yeast	RE007 growth inh
O=C(Cc1ccc2c(c1)OCCO2)N1CCN(S(=O)(=O)c2ccccc2C(F)(F)F)CC1	-5%	-24%	22%	-2%	-13%	-4.4%	13%	-8%
Cc1ccc2nsnc2c1S(=O)(=O)N1CCCC1C(=O)O (stereo unspecified)	29%[46.1 µM]	2%	.	3%	-6%	.	0%	15%
O=C(N/N=C/c1coc2ccccc2c1=O)c1ccccc1	?	27%	.	.	-17%	.	6%	-6%
O=C(Cn1c(=O)oc2cc(S(=O)(=O)N3CCCC3)ccc21)N1CCN(c2ccccc2F)CC1	.	.	.	9%	-29%	.	7%	-10%
O=C(O)c1cc([N+](=O)[O-])ccc1NCCO	1%	14%	4%	6%	-16%	-5.1%	2%	-4%
C=CCn1c(N)c(C(=O)N2CCN(C)CC2)sc1=S	-11%	31%[14.3 µM]	-25%	5%	17%	-1.7%	0%	18%
CCN(CC(=O)Nc1cc(OC)ccc1OC)Cc1nc2ccccc2c(=O)[nH]1	-16%	6%	.	-3%	-10%	.	2%	32%
O=C(c1ccc(=O)[nH]n1)N1CCc2ccccc2C1	.	.	.	3%	3%	.	0%	10%
O=C(CNC(=O)Cc1ccccc1)NCc1cccc(C(F)(F)F)c1	-4%[46.1 µM]	9%	.	-6%	8%	.	0%	6%
CCNc1nc(NCC)n2c(SCC(=O)Nc3ccccc3[N+](=O)[O-])nnc2n1	15%	4%	-6%	6%	-7%	-2.6%	-11%	3%
C/C(=N\NC(=O)c1nnn(-c2nonc2N)c1-c1ccc2c(c1)OCO2)c1ccc(F)cc1	?	?	.	12%	-4%	.	-4%	7%
N/N=c1\sc2ccccc2n1-c1ccccc1	-14%	18%	16µM*	11µM*	0%	-3.4%	-10%	11%
O=C(COC(=O)/C=C/c1ccccc1)NCc1ccc(Cl)cc1	?	-10%	-5%	-2%	-3%	-1.0%	-16%	14%
O=C(Nc1nnc(-c2ccccc2Cl)o1)c1cccnc1	9%	?	7%	-43%	53%[activator]	3.9%	-6%	8%
Cc1cc(C(=O)OCC(N)=O)c(C)n1-c1ccccc1	-2%	2%	.	.	21%	.	0%	5%
OC(COc1ccc(F)cc1)CN1CCN(CC(O)COc2ccc(F)cc2)CC1 (stereo unspecified)	?	-11%[46.1 µM]	.	0%	1%	.	0%	-1%
O=C(NC(=S)Nc1cccc(C(F)(F)F)c1)c1csnn1	-6%[46.1 µM]	17%	.	4%	-5%	.	-2%	-12%
CC1=C(C#N)c2nc(N)c(C#N)c(C)c2/C1=C\c1ccc(-c2ccccc2C(=O)O)o1	?	-16%	.	.	-4%	.	3%	1%
Cc1c(C(=O)N2CCN(C(=O)c3ccco3)CC2)sc2nc(-c3ccc(F)cc3)cn12	.	.	?	?	-21%	-3.9%	1%	5%
CN(C)CCNC(=O)/C(=C/c1ccc(-c2ccc(Cl)cc2)o1)NC(=O)c1ccccc1	12µM*	?	3%	-4%	?	-11%	-3%	.
COc1cc(/C=N/OCC(=O)NC2CCCCC2)ccc1OCc1ccccc1	-6%	5%	2%	6%	-16%	-8.5%	4%	11%
COc1ccc2c(c1)cc1c(=O)n(CC(=O)NC3CC3)nc(C)n12	3%[46.1 µM]	.	12%	.	-24%	-0.3%	.	.
Cc1ccc(-n2c(=O)c3c4c(sc3n(Cc3cc(=O)n5cc(Cl)ccc5n3)c2=O)CCC4)cc1C	-16%[46.1 µM]	11%[46.1 µM]	0%	.	-15%	-2.0%	.	.
COc1ccc(Nc2ncc(C(=O)Nc3cccc(OC)c3)c3ccccc23)cc1	-2%[46.1 µM]	?	-24%	.	7%	-8.5%	.	.
CCN(CC)c1ccc(CNc2nc3ccccc3n2C)cc1	.	.	.	0%	7%	.	0%	-13%
CCOC(=O)c1ccc(NC(=S)NNC(=O)C2(C)CC2(Cl)Cl)cc1 (stereo unspecified)	17%	7%	-6%	-17%	-18%	-0.9%	-5%	8%
CSc1ccc(NC(N)=S)cc1	.	.	.	7%	7%	.	0%	2%
COC(=O)c1ccc(N2NC(=O)/C(=C/c3cc(OC)c(O)c(OC)c3)C2=O)cc1	-26%[46.1 µM]	7%[46.1 µM]	.	3.5µM*	-25%	.	3%	-6%
O=C1NC(=S)S/C1=C\c1cc2ccccc2nc1N1CCCCC1	-30%[46.1 µM]	10%[46.1 µM]	.	-1%	-23%	.	-1%	12%
CC1=C(C(=O)OCc2ccccc2)C(c2cccs2)N2C(=O)CCSC2=N1 (stereo unspecified)	?	-10%[46.1 µM]	.	.	?	.	-6%	0%
COC(=O)c1ccc(Nc2nc(N3CCOCC3)nc(N3CCOCC3)n2)cc1	2µM*	?	.	-6%	-11%	.	-7%	-2%
COc1cc2ccccc2cc1C(=O)N(CCN(C)C)c1nc2c(F)cccc2s1	.	.	.	8%	-20%	.	2%	1%
Cc1cc(C(=O)N/N=C/c2c(C)nn(-c3ccccc3)c2C)c(C)o1	?	-23%[46.1 µM]	.	-12%	2%	.	-1%	3%
CC(C)c1nc2ccc(C(=O)NCc3ccc(F)cc3)cc2o1	.	-2%[46.1 µM]	0%	.	-9%	-1.5%	.	.
O=C(/C(=C/c1cccnc1)n1ccnc1)c1ccc(Cl)cc1Cl	.	.	.	0%	?	.	0%	3%
Cc1nc2ccc(S(=O)(=O)CCC(=O)Nc3ccccc3C)cc2s1	.	-8%[46.1 µM]	8%	.	-13%	0.1%	.	.
O=C(CSc1nccn1Cc1ccc(Cl)cc1)Nc1nc2ccccc2s1	.	4%[46.1 µM]	-19%	.	-17%	-7.5%	.	.
CC(C)Cc1nc2ccccc2n1CCc1ccccc1	?	-3%	5%	-19%	0%	0.4%	-15%	-20%
CCCCn1c(SCC(=O)NCc2ccc3c(c2)OCO3)nnc1C(CC)N(C)C (stereo unspecified)	-7%	1%	.	.	-13%	.	-6%	-31%
O=C(COC(=O)c1ccc(Br)cc1)NCC1CCCO1 (stereo unspecified)	-1%	15%	.	.	2%	.	-3%	-17%
COc1ccc(NC(=O)c2cc3c(CO)cnc(C)c3oc2=Nc2cc(OC)cc(OC)c2)cc1	8%[46.1 µM]	-9%	.	8%	-8%	.	1%	1%
CCCCC(O)(CCCC)C(=O)NN(C(=O)OCC)c1ccccc1	2%	-3%	-5%	2%	-19%	-1.8%	8%	4%
CCNc1ccc(C(=O)OCC)cc1NC(=O)c1cccc(N(C)C)c1	?	-25%	-28%	-13%	.	-0.4%	2%	0%
NC(=O)c1nsc(C(=O)N(c2ccc3c(c2)OCO3)C(C(=O)NCC2CCCO2)c2ccc(F)cc2)c1N (stereo unspecified)	?	-11%	.	9%	27%	.	-6%	-3%
Cc1ccc(F)cc1NC(=O)C1CCCN(c2ncccn2)C1 (stereo unspecified)	1%	35%[14.3 µM]	-17%	-8%	14%	6.1%	3%	-7%
COc1ccc(-n2ccn(CC(=O)NCCc3ccccc3)c(=O)c2=O)cc1OC	.	25%[46.1 µM]	9%	.	-9%	-6.6%	.	.
CCN(CC(=O)Nc1c(F)cccc1F)C(=O)C1CC(=O)N(c2ccc3c(c2)OCCO3)C1 (stereo unspecified)	12%	25%[46.1 µM]	.	.	15%	.	0%	-17%
CCCCC(=O)N(c1ccc(OCC)cc1)C1C=CS(=O)(=O)C1 (stereo unspecified)	10%	-19%	7%	-2%	.	1.7%	2%	0%
CCOc1ccc(CCNC(=O)c2cc(Nc3ccc(C)cc3C)nc3ccccc23)cc1OCC	-18%[46.1 µM]	-22%[46.1 µM]	?	.	-11%	-4.4%	.	.
C=CCN1c2ccccc2[C@]23C[C@@H](C(=O)OC)N(C(=O)c4cccs4)C2=NC(C(=O)OC)=C(C(=O)OC)[C@H]13	25%[14.2 µM]	.	.	-10%	-6%	.	1%	1%
CC(C)(C)C1c2[nH]c3ccccc3c2CCN1Cc1cccc(OCCO)c1 (stereo unspecified)	?	?	.	2%	-16%	.	1%	11%
COc1cccc(-c2noc(C3CCCN(C(=O)c4ccc(F)cc4F)C3)n2)c1 (stereo unspecified)	.	.	.	?	4%	.	0%	0%
CN1C(=O)NC(NC(=O)c2ccco2)(C(F)(F)F)C1=O (stereo unspecified)	-1%	-1%	1%	9%	17%	4.1%	-1%	5%
COCCn1c(SCc2nnc(-c3ccc(OC)c(OC)c3)o2)nnc1-c1ccncc1	2%[46.1 µM]	5%	.	4%	?	.	1%	11%
Cc1ccc(C(=O)Nc2ccc(F)cc2)cc1S(=O)(=O)N1CCOCC1	.	?	-6%	.	-23%	-0.7%	.	.
CC(=O)Oc1ccc2c(c1)C(=O)c1ccccc1CO2	?	16%	-1%	-4%	43%[activator]	-3.8%	-3%	?
CCSc1nnc(NC(=O)c2cccc(S(=O)(=O)N(C)c3ccc(C)cc3)c2)s1	0%	-17%	-2%	11%	-9%	-9.5%	-7%	.
CSc1nnc(Cc2ccc3c(c2)OCO3)o1	-6%	-9%	-12%	-2%	19%	4.3%	5%	11%
O=C(CCc1nc2ccccc2c(=O)[nH]1)NCCN1C(=O)S/C(=C\c2ccccc2Cl)C1=O	4%	?	.	.	?	.	5%	14%
COc1cc(Br)c(-c2sc(Nc3ccccc3)n[n+]2-c2ccc(F)cc2)cc1OC	.	.	.	-14%	3%	.	6%	5%
CCN(CC)c1ccc(NC(=O)c2ccccc2F)cc1	?	?	-24%	8%	19%	-0.8%	6%	-6%

Assay outcomes (PubChem BioAssay)
